CBX7 AlphaScr: blocks human CBX7 binding to H3K27me3 peptide | normalised signal (fraction of DMSO) (test concentration not listed) | O95931 | 66,000 compounds, 1.1% hits | AlphaScreen His6-CBX7 / biotin-H3K27me3 peptide binding; stronger effect = lower value; in the data active = normalised signal below about 0.5;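 also: 100 nL library stock added to about 20 µL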
Target sequence (O95931 whole entry, looked up): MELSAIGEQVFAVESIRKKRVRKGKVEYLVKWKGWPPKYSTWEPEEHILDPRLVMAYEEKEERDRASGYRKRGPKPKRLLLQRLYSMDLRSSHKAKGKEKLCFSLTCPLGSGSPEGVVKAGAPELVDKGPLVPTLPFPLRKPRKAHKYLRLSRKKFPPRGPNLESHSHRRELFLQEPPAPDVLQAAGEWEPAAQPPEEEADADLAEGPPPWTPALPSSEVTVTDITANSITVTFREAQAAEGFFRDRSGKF
CBX7 AlphaScr z-score: also measured in CBX7 AlphaScr; calls as there; z-score; measured here: z-score of CBX7 signal; some inactives read as strong as hits; reference of the scale not given here;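 same signal on another scale; lower means less binding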
The depositor's hits bear a star. This is a subset, so the mix of outcomes need not match the whole.

Screens in order: CBX7 AlphaScr | CBX7 AlphaScr z-score
Cc1cccc(-c2nc(C(=O)NCCc3ccccc3)c(C)o2)c1
    0.969 | -0.251
CCCCNC(=O)c1cn(-c2ccc(C)c(C)c2)c(=O)c2ccccc12
    0.939 | -0.659
COc1ccc(-c2[nH]c(-c3ccc(Cl)cc3)nc2SCC(=O)Nc2nccs2)cc1
    1.03 | 0.667
Clc1ccc(OCc2nc3ccccc3n2Cc2ccccc2)c(Cl)c1
    1.05 | 0.711
Cc1oc(-c2cccc(Cl)c2)nc1CN1CCCC(C(=O)NC(C)CCc2ccccc2)C1 (stereo not drawn)
    1.02 | 0.519
O=C(C1CCN(c2nc3ccccc3[nH]2)CC1)N1CCC(Cc2ccccc2)CC1
    0.856 | -1.66
Cc1nc2c(C(=O)NC3CCCCC3C)cnn2c(C)c1Cc1ccccc1Cl (stereo not drawn)
    0.866 | -1.26
CCCN1CCN(C(=O)c2cn(-c3ccc(F)cc3F)c(=O)c3ccccc23)CC1
    1.08 | 1.02
O=C(N1CCN(c2ccccc2Cl)CC1)C1(S(=O)(=O)c2ccc(Cl)cc2)CC1
    1.03 | 0.773
COC(=O)c1cc2sc(Cl)cc2n1CC(=O)N1CCCc2ccccc21
    1.09 | 2.55
O=S(=O)(Cc1ccc(Br)cc1)c1nc2ncccc2[nH]1
    0.921 | -1.26
CCc1nn(CC(=O)Nc2cccnc2Cl)c2ccccc12
    0.991 | -0.229
CN1CCN(C(=O)c2ccc(CSc3nc4ccncc4n3Cc3ccc(F)cc3)cc2)CC1
    1.01 | 0.467
CCN(CC)CCCNC(=O)Cn1nc(Cc2ccncc2)c2ccccc2c1=O
    0.853 | -1.74
Clc1ccccc1-c1nnc(-c2ccc3c(c2)OCO3)o1
    1.05 | 1.75
COc1cccc(-c2nn(C)c3sc(C(=O)Nc4ccccc4F)cc23)c1
    0.797 | -2.61
Cc1c(C(=O)Nc2cc(-c3nc4ccccc4o3)ccc2Cl)oc2ccccc12
    1.05 | 1.28
O=C(NCC1CCCO1)C1CC(c2ccc(F)cc2)=NO1 (stereo not drawn)
    1.01 | 0.541
CCCOc1nnc(-c2ccc(OC)cc2)c2ccccc12
    1.07 | 0.287
CCn1cc(Br)c(C(=O)Nc2ccc(C)c(C)c2)n1
    1.17 | 1.52
O=C(NCc1ccccn1)c1ccc2c(c1)N(Cc1ccc(F)cc1)C(=O)c1ccccc1S2=O (stereo not drawn)
    0.539 | -12.8
COc1ccccc1NC(=O)C1CC2c3ccccc3C1c1ccccc12 (stereo not drawn)
    1.11 | 3.08
O=C(CSc1nnc(CNC(=O)c2cccs2)o1)Nc1cccc(C(F)(F)F)c1
    0.979 | -0.607
CCOc1ccc2ccccc2c1-c1nc2sc3c(c2c(=O)[nH]1)CCCC3
    1.15 | 1.11
CN(C(=O)Cc1c(C(=O)O)n(C)c2ccccc12)c1ccc(F)cc1
    0.975 | -0.517
CC1CCC(NC(=O)c2cc3occc3n2C)CC1 (stereo not drawn)
    1.14 | 1.06
COc1ccc(NC(=O)c2oc3ccc(S(=O)(=O)N4CCCCC4)cc3c2C)c(OC)c1
    1.05 | 2.59
COC(=O)CNC(c1ccccc1)c1cc(C)ccc1NC(=O)c1ccccc1 (stereo not drawn)
    1.01 | 0.573
Cc1ccc(S(=O)(=O)c2cn(Cc3ccccc3C)c3ccc(F)cc3c2=O)cc1
    0.906 | -3.54
Cc1cccn2cc(-c3cccc(S(=O)(=O)N4CC(C)OC(C)C4)c3)nc12 (stereo not drawn)
    1.02 | 0.618

Reprinted from the part before: 4 entries, followed by the next part.
Screens in order: CBX7 AlphaScr | CBX7 AlphaScr z-score
COc1ccc(NC(=O)c2oc3ccc(S(=O)(=O)N4CCCCC4)cc3c2C)c(OC)c1
    1.05 | 2.59
COC(=O)CNC(c1ccccc1)c1cc(C)ccc1NC(=O)c1ccccc1 (stereo not drawn)
    1.01 | 0.573
Cc1ccc(S(=O)(=O)c2cn(Cc3ccccc3C)c3ccc(F)cc3c2=O)cc1
    0.906 | -3.54
Cc1cccn2cc(-c3cccc(S(=O)(=O)N4CC(C)OC(C)C4)c3)nc12 (stereo not drawn)
    1.02 | 0.618
Cc1nc2c(C(=O)N3CCCC3)c[nH]n2c(=O)c1Cc1cccc(Cl)c1
    1.04 | 1.18
Cc1ccc(CCNC(=O)c2ccc(CNS(=O)(=O)c3ccc(C)cc3)cc2)cc1
    0.981 | -0.369
Cc1ccc(-n2cc(-c3ccccc3)c3c(NCCO)ncnc32)cc1
    1.03 | 0.712
O=C(NCCCN1CCOCC1)c1cc2c(s1)CSC2
    1.08 | 0.911
CCN(CC)c1nc(C)nc2sc(C(=O)NCc3ccccc3OC)c(C)c12
    1.15 | 1.85
CCOc1ccc(-c2nc(C#N)c(NCCCN(CC)CC)o2)cc1
    1.46 | 5
Cc1ccc(OCc2nc(C#N)c(NCCCn3ccnc3)o2)cc1
    0.921 | -0.108
CCOC(=O)CNC(=O)c1cc2c(n(-c3ccc(C)cc3)c1=O)CC(C)(C)CC2=O
    1.1 | 0.438
COc1ccc(CNC(=O)CN(c2ccc(OC)cc2)S(=O)(=O)c2c(C)nn(C)c2C)cc1
    1.14 | 0.983
Cc1ccc(-c2noc(COc3cc(C)ccc3C)n2)cc1
    1.28 | 0.333
COc1ccc2c(c1)CCc1c(C(=O)N3CCN(C)CC3)noc1-2
    1.11 | 0.854
COCCNC(=O)c1ccc2c(c1)N(Cc1ccccc1Cl)C(=O)c1ccccc1S2
    0.916 | -2.18
CCC(=O)N1CCc2cc(S(=O)(=O)N3CCN(Cc4ccc5c(c4)OCO5)CC3)ccc21
    1.12 | 2.31
COc1cccc(C(=O)NCC2(c3ccccc3)CCCC2)c1
    0.867 | -2.24
C=CCn1c(SCC(=O)Nc2ccc(F)cc2)nnc1-c1ccncc1
    1.01 | 0.333
Cc1ccc(CNC(=O)c2cnc3sccn3c2=O)cc1
    0.939 | -1.37
O=C(O)c1ccc2c(c1)NC(=O)C(CSCc1ccccc1F)N2 (stereo not drawn)
    1.36 | 0.404
CCc1ccc(NC(=O)CSc2nccn2-c2cccc(C)c2)cc1
    0.764 | -0.235
CC(NC(=O)c1cc2c(-c3ccccc3F)nn(C)c2s1)c1ccc2c(c1)OCCO2 (stereo not drawn)
    0.938 | -0.0849
O=C(NCc1ccccc1Cl)C1CCCN(c2nnc(-n3cccc3)s2)C1 (stereo not drawn)
    1.01 | 0.374
Cc1ccc(C)c(Nc2cc(C)nc(-c3ccccc3O)n2)c1
    1.12 | 2.35
COc1ccc(Cl)cc1NC(=O)CSc1nnc(Cc2cc(=O)[nH]c(=O)[nH]2)n1-c1ccccc1
    1 | 0.0572
COCCN(CCOC)Cc1c(C)[nH]c2ccc(C)cc2c1=O
    1.08 | 1.34
Cc1ccc(C(=O)Nc2c3c(nn2-c2ccc(Cl)cc2)CSC3)cc1C
    0.873 | -2.31
COc1ccc(Nc2ncnc3ccc(Br)cc23)cc1
    1.04 | 0.767
CCCCN(C(=O)c1ccccc1)C1CC2CCC(C1)N2C (stereo not drawn)
    1.05 | 0.587
Cc1cc(Cn2nnc(-c3ccccc3)n2)cc(C)c1O
    0.87 | -2.76
CCCOc1ccc(N2C(=O)CC(NCc3ccccc3)C2=O)cc1 (stereo not drawn)
    1.06 | 1.64
CCC(C)c1ccc(N2CC(C(=O)Nc3ccc(NC(C)=O)cc3)CC2=O)cc1 (stereo not drawn)
    1.04 | 0.371
Cc1ccc2c(c1)c1c3n2CN(CC(O)COc2ccccc2C)CC3CCC1 (stereo not drawn)
    0.919 | -0.797
CCCCCCOc1ccc(NC(=O)c2ccc(-c3ccc(CC)cn3)cc2)cc1
    1.05 | 1.08
COc1cccc(-n2ccnc2SCC(=O)Nc2cccc3ccccc23)c1
    0.748 | -3.85
Cc1ccc(OCC(O)CN2C(=O)NC(C)(C)C2=O)c(Cl)c1 (stereo not drawn)
    1.22 | 0.516
CC(C)(C)c1ccc(C(=O)Nc2nnc(Cc3ccc(Cl)cc3)s2)cc1
    1 | 0.17
CC1CCCN(CCCNC(=O)Cn2nc(Cc3cccnc3)c3ccccc3c2=O)C1 (stereo not drawn)
    1.38 | 3.55
Cc1ncc(CO)c2cc(-c3nnc(Nc4ccccc4Cl)s3)c(=O)oc12
    1.16 | 1.06
CC(C)c1ccc(OCC(=O)N(Cc2cccs2)C2CCS(=O)(=O)C2)cc1 (stereo not drawn)
    0.922 | -0.988
CCOC(=O)c1c(NC(=O)c2ccc(Oc3ccccc3)cc2)sc2c1CCC2
    1.22 | 1.87
COc1ccc(C2(CNC(=O)Cc3ccccc3)CCOCC2)cc1
    1.08 | 3.12
CC1CCN(S(=O)(=O)c2ccc3ncn(CC(=O)NCc4ccc(F)cc4)c(=O)c3c2)CC1
    1.02 | 0.504
O=C1CCc2cc(S(=O)(=O)N3CCC(C(=O)N4CCCC4)CC3)ccc2N1
    0.887 | -2.88
Cc1cc(N2CCOCC2)nc2ccc(NC(=O)CCC(=O)Nc3ccc(C(F)(F)F)cc3)cc12
    0.996 | -0.0782
CCCc1ccc(-c2ccc(C(=O)O)cc2)nc1
    1.04 | 0.692
COC(=O)c1ccc(C2C(Oc3ccccc3)C(=O)N2CCc2ccc(OC)c(OC)c2)cc1 (stereo not drawn)
    1.04 | 1.56
Cc1cc(Nc2cc(Cl)ccc2O)n2nnnc2n1
    0.993 | -0.088
CCN(CC)C(C(=O)NC1CCCC1)c1ccc(OC)cc1 (stereo not drawn)
    1.21 | 2.12
CCOC(=O)c1c(NC(=O)c2ccccc2Br)sc2c1CCC(C)C2 (stereo not drawn)
    1.44 | 1.11
CCOc1ccccc1NC(=O)Cn1cnc2sc(C)c(C)c2c1=O
    1.03 | 0.176
COc1ccc(-c2nc3cc(C)ccn3c2NC(=O)COc2ccccc2)cc1
    0.934 | -0.634
COc1ccccc1-c1cc(C(=O)N(C)c2ccccc2)no1
    0.944 | -0.326
Cc1cccc(-c2nc(CSCC(=O)O)c(C)o2)c1
    1.04 | 1.73
COc1ccc(NC(=O)c2c(NCc3cccnc3)sc3c2CCCC3)c(OC)c1
    0.307* | -13.7*
Clc1ccccc1CSc1nc2ncccc2[nH]1
    1.01 | 0.137
Cc1ccc2nc(-c3ccc(C)c(NC(=O)c4ccc(Br)cc4)c3)oc2c1
    0.998 | -0.00233
COc1ccc(NCc2nc3ccccc3n2CCOc2ccccc2Cl)cc1
    0.581 | -4.06
Cc1cccc(C)c1NC(=O)CN(C)S(=O)(=O)c1ccc2c(c1)n(C)c(=O)c(=O)n2C
    1.17 | 1.62
Cc1ccc(-c2nnc(Nc3ccc(OC(F)(F)F)cc3)c3ccccc23)cc1S(=O)(=O)NCCO
    0.959 | -0.193
CCCCCCOc1ccc(COC2C(C(O)CO)OC3OC(C)(C)OC32)cc1 (stereo not drawn)
    0.899 | -0.631
C=CCNC(=O)CCN1C(=O)COc2ccccc21
    0.99 | -0.289
Cc1ccc2c(c1)NC(=O)C(CC(=O)Nc1ccc(F)cc1F)O2 (stereo not drawn)
    1.05 | 1.86

The last 6 records of the part above open the next one:
Screens in order: CBX7 AlphaScr | CBX7 AlphaScr z-score
COc1ccc(NCc2nc3ccccc3n2CCOc2ccccc2Cl)cc1
    0.581 | -4.06
Cc1cccc(C)c1NC(=O)CN(C)S(=O)(=O)c1ccc2c(c1)n(C)c(=O)c(=O)n2C
    1.17 | 1.62
Cc1ccc(-c2nnc(Nc3ccc(OC(F)(F)F)cc3)c3ccccc23)cc1S(=O)(=O)NCCO
    0.959 | -0.193
CCCCCCOc1ccc(COC2C(C(O)CO)OC3OC(C)(C)OC32)cc1 (stereo not drawn)
    0.899 | -0.631
C=CCNC(=O)CCN1C(=O)COc2ccccc21
    0.99 | -0.289
Cc1ccc2c(c1)NC(=O)C(CC(=O)Nc1ccc(F)cc1F)O2 (stereo not drawn)
    1.05 | 1.86
O=C(CCc1nc(-c2ccccc2F)no1)N1CCN(c2ccccc2)CC1
    1.05 | 1.45
CCOC(=O)c1cnc2c(C)cc(C)cc2c1Nc1cc(C)ccc1OC
    1.1 | 2.25
Cc1ccc(-c2nc(-c3ccccc3Cl)no2)cc1
    1.16 | 1.59
COc1ccc(Nc2cc(C(=O)NCCc3ccc(C)cc3)c3ccccc3n2)cc1OC
    0.847 | -1.82
COc1ccc(-c2noc(NC3CCCCC3)n2)cc1
    1.03 | 1.03
COc1ccccc1-n1nc(C(=O)N2CCCCCC2)c2ccccc2c1=O
    0.925 | -1.35
CCc1ccccc1NC(=O)CN(C)S(=O)(=O)c1ccc2nc(C)sc2c1
    1.39 | 2.25
COc1ccc(Cc2nnc(Nc3cccc(C(F)(F)F)c3)[nH]c2=O)cc1
    1.27 | 0.541
O=C(Nc1cccc2ccccc12)c1ccc2c(c1)C(=O)N(c1ccccn1)C2=O
    0.987 | -0.392
CCn1c(C(=O)N2CCCC(C(=O)N3CCN(c4ncccn4)CC3)C2)cc2sccc21 (stereo not drawn)
    0.961 | -0.172
Cc1c(C(=O)Nc2ccc(Cl)cc2)sc2ncn(CC(=O)N3CCCC(C)C3)c(=O)c12 (stereo not drawn)
    0.897 | -0.696
CCc1ccc(S(=O)(=O)Nc2ccc3oc4c(c3c2)CCC(C)C4)cc1 (stereo not drawn)
    0.98 | -0.545
O=C(Nc1cccc(F)c1)C1CCN(S(=O)(=O)c2cccs2)CC1
    0.984 | -0.366
O=C(CCn1c(=O)[nH]c2ccccc2c1=O)N1CCN(c2ccccc2)CC1
    1.05 | 0.141
NC(=O)c1c(NC(=O)c2cc(-c3ccc(O)cc3)on2)sc2c1CCCC2
    1.07 | 2.39
COc1ccc(-c2nc(CN3CCC(C(=O)NCCCN4CCOCC4)CC3)c(C)o2)cc1
    1.06 | 2.25
CCOCCCNC(=O)c1cc(Nc2ccc(OC)c(OC)c2)nc2ccccc12
    0.897 | -1.22
O=C(COc1ccccc1Cl)Nc1ccc(-c2nc3ccccc3s2)cc1
    1.02 | 0.734
COc1ccccc1OCCN1CCN(c2ccccc2C)CC1
    0.992 | -0.291
CCN(CC)CC(=O)N1CC(=O)Nc2ccccc21
    1.13 | 0.266
Cc1ccc(-c2cc(-c3ccc(F)cc3)n3ncnc3n2)cc1
    0.861 | -1.65

Source: PubChem BioAssay (several laboratories)
